Compound activity deposited in PubChem by several laboratories.
WNV protease inh = inhibitors of West Nile virus NS2B-NS3 protease; WNV NS2B-NS3 protease, fluorogenic substrate Ex360/Em465; hits give low values; z-score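 (tested at a level between 10 and 100 µM)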; 0.18% of 65,000 active; AID 577;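 active = z-score at -3 or under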;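 note: score is relative to mean and spread of the compound wells of a plate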
Target sequence (P06935 1371-1501 limits assumed): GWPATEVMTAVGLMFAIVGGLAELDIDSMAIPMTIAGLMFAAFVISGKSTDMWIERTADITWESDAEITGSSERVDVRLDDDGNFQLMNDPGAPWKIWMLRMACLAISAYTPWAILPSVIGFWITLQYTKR
Target sequence (P06935 1502-1679 limits assumed): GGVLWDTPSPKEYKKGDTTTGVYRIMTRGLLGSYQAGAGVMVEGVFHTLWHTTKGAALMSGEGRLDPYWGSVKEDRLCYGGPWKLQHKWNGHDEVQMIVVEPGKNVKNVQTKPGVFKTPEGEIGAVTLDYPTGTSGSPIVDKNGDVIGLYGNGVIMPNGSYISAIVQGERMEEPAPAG
Hsc70 = small molecules displacing fluorescent ligand from Hsc70 – biochemical, fluorescence polarization, primary screen (AID 568) | Hsc70 fluorescence polarization, probe displacement; higher % means a stronger effect; strong numbers were not always called active | 83,000 tested, under 10 active | displacement, % at 20 µM, or IC50 in µM where a hit was titrated;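 active = displacement above 50% without optical interference and an IC50 on retest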;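 note: ATPase domain with a fluorescein-tagged ATP probe; 0% = vehicle and 100% = excess ADP; read after one hour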
MT1-MMP reporter = inhibitors of MT1-MMP promoter transcription, cell-based, luciferase reporter, luminescence (AID 618). MT1-MMP promoter luciferase reporter cells, luminescence. calls from a first round at 10 µM; hits with a dose series show EC50 in µM. 0.62% of 87,000 active;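 active = over half of the reporter light lost at 10 µM or EC50 under 50 µM; inactive = the rest and hits that failed the dose series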;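 note: actives suppress MT1-MMP promoter-driven transcription so potencies describe inhibitors; HT1080 fibrosarcoma cells; overnight exposure; toxic or luciferase-blocking compounds were not removed from the actives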
An asterisk follows results filed as active; i = inactive; x = not tested or not shown; + = active, no number; & = joins results of further samples. An excerpt, so the mix of outcomes need not match the whole.

SMILES,WNV protease inh,Hsc70,MT1-MMP reporter
CC(c1ccccc1)n1cncc1C(=O)N1CCCC1=O (centres undefined),1.4,2.5%,i
c1ccc2c(NC3=NCCS3)cccc2c1,1.1,-7.8%,i
Cc1c(N=Cc2c(O)n(Cc3ccco3)c(=O)[nH]c2=O)c(=O)n(-c2ccccc2)n1C,0.05,-0.1%,i
Cc1ccc(OCC(=O)N2CCN(CC3CC4C=CC3C4)CC2)cc1 (centres undefined),1.3,1.2%,i
Cc1ccc(C2CC(=O)C(C=NCCN3CCN(C(=O)Cc4ccccc4)CC3)=C(O)C2)cc1 (centres undefined),-0.64,9.9%,i
CC(C)c1cccc(C(C)C)c1OCCn1ccnc1,-0.03,-4.4%,i
O=c1[nH]c(=O)n(C2CCCCC2)c(O)c1C1NCCc2ccccc21 (centres undefined),0.15,-2.0%,i
COc1ccc(OC)c(C(O)C(C)N)c1 (centres undefined),0.38,-1.9%,i

Retrieved by compound from the entries so far (two):
SMILES,WNV protease inh,Hsc70,MT1-MMP reporter
CC(C)c1cccc(C(C)C)c1OCCn1ccnc1,-0.03,-4.4%,i
O=c1[nH]c(=O)n(C2CCCCC2)c(O)c1C1NCCc2ccccc21 (centres undefined),0.15,-2.0%,i

Continued:
SMILES,WNV protease inh,Hsc70,MT1-MMP reporter
O=C(CNS(=O)(=O)c1ccc(Br)s1)N1CCC2(CC1)OCCO2,0.36,-1.8%,i
OC(C#CCN1CCOCC1)(c1ccccc1)C1CCCC1 (centres undefined),x,2.3%,i
CCOC(C(=O)OCCC[N+](C)(CC)CC)(c1ccccc1)c1ccccc1,x,2.3%,i
C=CCn1c(O)c(C=NCCN(C)C)c(=O)[nH]c1=O,1.2,-60%,i
Cn1c(O)c(C=NCc2ccco2)c(=O)n(C)c1=O,1.6,3.2%,i
CCC(=NCCCN(C)C)c1c(O)n(-c2ccc(OC)cc2)c(=O)[nH]c1=O,-1.7,-3.1%,i
COc1ccc(C2SCC(=O)Nc3c2c(C)nn3C2CCOC(C)(C)C2)cc1 (centres undefined),x,-2.2%,i
CCC(=NCc1ccco1)c1c(O)n(C2CCCCC2)c(=O)[nH]c1=O,-0.64,-1.6%,i
CCN(CC)CCNC(=O)c1c(O)c2ccccc2n(Cc2ccccc2)c1=O,x,-0.2%,i
Cc1ccc(C2C(S(C)(=O)=O)=C(O)C(=O)N2c2ccccc2)cc1 (centres undefined) (tested in a mixture with another compound),-1.4,-6.4%,i
Cc1nc2ccccc2c(=O)n1-c1ccccn1,0.74,-3.6%,i
O=P(OCC(F)(F)C(F)F)(N1CCOCC1)N1CCOCC1,0.92,-6.1%,i
O=C(c1cc2nc(-c3ccccc3)cc(-c3ccccc3)n2n1)N1CCC2(CC1)OCCO2,-0.95,-3.3%,i
O=c1[nH]c(=S)n(Cc2ccco2)c(O)c1C=NCc1cccs1,x,-0.7%,i
CCOCCCN=Cc1c(O)n(Cc2ccccc2)c(=O)[nH]c1=O,-0.2,1.0%,i
CCOC(=O)C1=C(N)Oc2cc(C)oc(=O)c2C12C(=O)N1c3c(cc(OC)cc32)C(C)=CC1(C)C (centres undefined),0.12,-0.5%,i
O=C(COc1ccc(Cl)cc1Cl)N1CCN(C/C=C/c2ccccc2)CC1,x,3.5%,i
CCCCn1c(O)c(C(C)=NCCCn2ccnc2)c(=O)[nH]c1=O,x,2.7%,i
CC12CN3CC(C)(CN(C1)C3c1cccnc1)C2=O (centres undefined),-0.38,2.2%,i
O=c1[nH]c(=O)n(Cc2ccc(F)cc2)c(O)c1C=NCCCN1CCOCC1,0.6,-4.7%,i
Cc1cccc(CS(=O)(=O)Cc2ccc(C(=O)N3CCC4(CC3)OCCO4)o2)c1,-1.1,10%,i
O=C(Cc1ccccc1)Oc1cccc(N2C(=O)CCC2=O)c1,-0.45,2.7%,i
O=C1C2CCN(CC2)C1Cc1ccccc1O (centres undefined),x,-7.1%,i
CC1=CC(=C2C(=O)NC(=S)NC2=O)C=C(C(F)(F)F)N1C,x,4.1%,i
Cc1ccc(C2N(c3cc(C)on3)C(=O)C3CCCN32)cc1 (centres undefined),0.56,6.8%,i
CNC(=O)ON(C(=O)NC)C1N(C)C(=S)SC1(C)C (centres undefined),0.69,-0.4%,i
Nc1nnc(CCN2CCCCC2)s1,1.4,0.2%,i
O=P(O)(O)COc1ccccc1O,-0.61,-7.9%,i
O=C1CC(=O)N(c2ccc3c(c2)OCO3)C(=O)N1,-0.64,-4.4%,i
CN=C(SCc1ccccc1)c1c(O)n(C)c(=O)n(C)c1=O,0.13,-4.3%,i
O=C(C(Cc1ccccc1)NS(=O)(=O)c1cccc2nsnc12)N1CCC2(CC1)OCCO2 (centres undefined),1.2,1.9%,i
Nc1ccccc1C(=O)c1ccccc1,-0.86,3.5%,i
COc1cccc(-n2c(C)nc3ccccc3c2=O)c1,0.14,-4.3%,i
O=C(COc1ccc(Cl)cc1)N1CCN(C/C=C/c2ccccc2)CC1,x,-1.3%,i
C=CCn1c(O)c(C=Nc2ccc(OC)cc2C)c(=O)[nH]c1=O,0.14,-4.1%,i
CN1CCC(N(C)c2ncnc3ccc(Br)cc23)CC1,0.48,8.4%,i
COCc1cc(C2SCC(=O)Nc3c2c(=O)[nH]n3C(C)C)ccc1OC (centres undefined),-0.00081,2.2%,i
CCCC(C)(COC(N)=O)COC(=O)NC(C)C (centres undefined),-0.28,2.0%,i
O=C(Cn1c(=O)c(C(F)(F)F)nc2ccccc21)N1CCC2(CC1)OCCO2,-0.24,2.6%,i
CN1CCc2c(c(N3CCCCC3)nc3n[nH]c(N)c23)C1,0.31,-0.1%,i

Full records, quoted from the list:
`C=CCn1c(O)c(C=Nc2ccc(OC)cc2C)c(=O)[nH]c1=O` is listed as WNV protease inh: 0.14; Hsc70: -4.1%; MT1-MMP reporter: i
`O=C(Cn1c(=O)c(C(F)(F)F)nc2ccccc21)N1CCC2(CC1)OCCO2` is listed as WNV protease inh: -0.24; Hsc70: 2.6%; MT1-MMP reporter: i

Next part
SMILES,WNV protease inh,Hsc70,MT1-MMP reporter
O[C@@H]1CCCC[C@H]1N1CCC(c2ccccc2)CC1,0.33,1.0%,i
CCN1CCC2(CCNC2)C1 (centres undefined),-1.5,7.2%,i
c1ccc2cc3cc4ccccc4cc3cc2c1,x,-4.8%,i
CSCCC(N=Cc1c(O)n(-c2ccc(Br)cc2)c(=O)[nH]c1=O)C(=O)OC(C)(C)C (centres undefined),x,-0.1%,i
COC(=NC1CCCC1)C(O)c1c[nH]c2ccccc12 (centres undefined),-0.8,-8.7%,i
Nc1ccccc1C(=O)OCCOc1ccccc1,0.16,-3.2%,+
COc1cc(/C=C2\C(=O)NC(=O)N(c3ccccc3)C2=O)cc(OC)c1O,x,-1.3%,i
COc1ccc(Cn2c(O)c(C=NCCCn3ccnc3)c(=O)[nH]c2=O)cc1,-0.24,3.0%,i
CC(=NCCCn1ccnc1)c1c(O)n(C)c(=O)n(C)c1=O,0.07,4.7%,i
Cc1cccn2c(=O)c3c(nc12)N1CCc2ccccc2C1C1(C3)C(=O)NC(=O)N(C)C1=O (centres undefined),x,-1.3%,i
COc1ccc(CCNCc2ccccn2)cc1OC,-0.7,1.9%,i
COc1ccc(CC(=O)N2CCN(C)CC2)cc1,x,-0.7%,i
COc1ccc(-n2c(O)c(C(C)=NCCCn3ccnc3)c(=O)[nH]c2=O)cc1,x,-4.3%,i
OCCN1C2CCC1CC(O)(c1ccc(F)cc1)C2 (centres undefined),0.77,-3.0%,i
CCCCN1C(=O)NC(=O)C2(Cc3cc(C)ccc3N(C)C2)C1=O (centres undefined),-0.24,6.9%,i
O=C(C1CC(c2ccccc2O)=NO1)N1CCC2(CC1)OCCO2 (centres undefined),x,2.2%,i
Cc1cc(OC(=O)c2ccco2)c2c3c(c(=O)oc2c1)CCCC3,x,-2.7%,i
CC(=NCCCN1CCOCC1)c1c(O)n(-c2ccccc2C)c(=O)[nH]c1=O,-0.35,-3.1%,i
CCn1c(=O)cc(SCC(=O)N2CCC3(CC2)OCCO3)c2ccccc21,0.59,3.6%,i
O=C(c1ccc(Cl)cc1)C12CN3CN(CN(C3)C1)C2,0.89,1.4%,i
Cc1ccc(-n2nc(C)c3c2NC(=O)CSC3c2ccc3c(c2)OCO3)cc1 (centres undefined),-0.72,-2.7%,i
CN(C)c1ccc(NC(=O)CN2C(=O)CN=C(c3ccccc3)c3ccccc32)cc1,-0.2,-1.3%,i
COc1ccc(C2=NCc3nnc(C)n3-c3ccc(Cl)cc32)cc1Cl,x,4.6%,i
O=C(CSC1c2ccccc2-c2ccccc21)N/N=C/c1ccccc1O,x,-2.3%,i
CC(C)(C)c1nc(NCc2ccc3c(c2)OCO3)c2nnn(Cc3ccccc3Cl)c2n1,x,-3.4%,i
CC(=NCCN1CCOCC1)c1c(O)n(C2CCCCC2)c(=O)[nH]c1=O,0.44,1.9%,i
CC(=NCc1ccco1)c1c(O)n(Cc2ccccc2)c(=O)[nH]c1=O,-0.19,1.8%,i
O=P(C(c1c[nH]c2ccccc12)N1CCOCC1)(N1CCOCC1)N1CCOCC1 (centres undefined),-1.5,-3.0%,i
C=Cn1ccnc1P(=S)(c1nccn1C=C)c1nccn1C=C,x,-2.2%,i
CCC(=O)N1c2ccc(S(=O)(=O)CCC(=O)N3CCC4(CC3)OCCO4)cc2CC1C (centres undefined),1.3,5.0%,i
CCC(CC)N1CCN(C(=O)Cc2ccccc2)CC1,x,-2.2%,i
C=CCN1C(=O)C2(C(C(=O)OCC)=C(N)Oc3ccccc32)c2c1c1ccccc1oc2=O (centres undefined),-0.73,10%,i

Some of the entries so far, with two lines to a compound:
Screens in order: WNV protease inh | Hsc70 | MT1-MMP reporter
O=P(OCC(F)(F)C(F)F)(N1CCOCC1)N1CCOCC1
 : 0.92 | -6.1% | i
O=C(c1cc2nc(-c3ccccc3)cc(-c3ccccc3)n2n1)N1CCC2(CC1)OCCO2
 : -0.95 | -3.3% | i

Remaining list, next part.
SMILES,WNV protease inh,Hsc70,MT1-MMP reporter
CC(C)C(=O)c1cn(Cc2ccccc2C#N)c2ccccc12,-0.6,-2.0%,i
O=c1cccc2n1CC1CC2CN(Cc2ccc3c(c2)OCO3)C1 (centres undefined),-0.1,3.6%,i
C[N+]1(C)[C@@H]2CC(OC(=O)[C@H](CO)c3ccccc3)C[C@H]1[C@@H]1O[C@@H]12 (some centres undefined),0.02,-0.9%,i
CCC12CN3CCN(CC(C3)/C1=N\O)C2,0.87,2.0%,i
CNC(C(=O)c1ccccc1)C(OC(C)C)c1ccc(Cl)cc1 (centres undefined),x,-3.9%,i
CCC(=O)Nc1ccc(N2CCN(CC)CC2)c(Cl)c1,x,0.8%,i
CC12CN3CN(C1)CC(c1ccccc1)(C3)C2=O,x,-4.6%,i
CNC(=O)Oc1ccc2c(c1)C(=O)c1ccccc1CO2,x,4.2%,i
O=C(NCc1cccnc1)NC1CCCCC1,-0.16,7.9%,i
CCCNC(=O)c1c(N)n(Cc2ccc3c(c2)OCO3)c2nc3ccccc3nc12,1.2,-11%,i
CCOC(=O)C1=C(C)OC(N)=C(C(=O)OCC)C12C(=O)Nc1ccc(Br)cc12 (centres undefined),-0.66,-1.0%,i
CCCCOc1ccc(CN2CCN(CCO)CC2)cc1,-0.35,2.7%,i
CCCCn1c(O)c(C(C)=NC(Cc2c[nH]c3ccccc23)C(=O)OC)c(=O)[nH]c1=O (centres undefined),-1.3,-0.1%,i
Cn1ccnc1P(=S)(c1nccn1C)c1nccn1C,0.2,-0.9%,i
O=C1NC(c2cccnc2)Nc2sc3c(c21)CCCC3 (centres undefined),x,3.6%,i
O=c1[nH]c(=O)n(CCC2=CCCCC2)c(O)c1C=NCCN1CCNCC1,-1.8,-25%,i
CC(C)(C)c1ccc(O)c(CN2CCN(c3ccccc3)CC2)c1,-0.32,9.3%,i
COC(=O)CSC1=NP(=S)(SCC(=O)OC)N2CCCC2=C1C#N (centres undefined),0.67,5.9%,i
Cn1c(=O)cc(OCC(=O)N2CCN(C3CCCCC3)CC2)c2ccccc21,0.04,3.5%,i
CC12CN3CC(C)(CN(C1)C31CCSCC1)C2=O,-0.04,4.6%,i
CCCC(C)C1(CC)C(=O)NC(=Nc2ccccc2OC)NC1=O (centres undefined),-0.58,3.4%,i
O=C(C1CCC(=O)N1Cc1ccc(F)cc1)N1CCC2(CC1)OCCO2 (centres undefined),0.86,2.6%,i
CC(=NCC1CCCO1)c1c(O)n(C)c(=O)n(C)c1=O (centres undefined),0.33,7.4%,i
CC1CN(O)C2CCc3nonc3C12O (centres undefined),0.1,2.2%,i
CC(=O)OC1C2CCCC1C(N1CCCC1)CC2 (centres undefined),-1.7,-1.0%&-2.1%,i
CC(C)c1ccc(OCC(=O)N2CCN(C)CC2)c(Br)c1,-0.04,4.8%,i
COc1ccc(OCC(=O)N2CCN(Cc3c[nH]c4ccccc34)CC2)cc1,-1,-1.6%,i
